SR-BI uptake up = SR-BI HDL lipid transfer activation; CHO ldlA[mSR-BI] cells, DiI-HDL uptake fluorescence, 3 h; 100 = double the neutral-control signal; activation, % at 12.5 µM; actives 0.096% (n = 320,000); AID 504775;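 active = mean replicate activation of at least 60% and every replicate at or above 60%; inconclusive = mean or all-replicate condition met, but not both; inactive = mean below 60% and not all replicates reaching 60%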;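 note: 0% = median plate neutral-control signal and 100% = twice that signal; values of inactives mirror those of a sister screen read the other way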
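Material: SR-BI-overexpressing, LDLR-lacking CHO cells; schedule: compound exposure 3 h, 37 °C; reagent: DiI-labelled HDL at 10 µg/mL final; technique: bottom-read fluorescence, 550/595 nm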
SR-BI DiI inh = mouse SR-BI HDL lipid transfer inhibition | Q61009 | ldlA[mSR-BI] CHO cells, DiI-HDL uptake fluorescence, 3 h | inhibition, % at 12.5 µM | actives 0.96% (n = 320,000);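 active = mean replicate inhibition of at least 70% and a set share of replicates each scoring 70 or more; inconclusive = meets just one of the two criteria; inactive = fails both criteria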;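 note: 0% = median of neutral control wells and 100% = median of positive control wells; values of inactives mirror those of a sister screen read the other way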
Target sequence (Q61009 whole entry, looked up): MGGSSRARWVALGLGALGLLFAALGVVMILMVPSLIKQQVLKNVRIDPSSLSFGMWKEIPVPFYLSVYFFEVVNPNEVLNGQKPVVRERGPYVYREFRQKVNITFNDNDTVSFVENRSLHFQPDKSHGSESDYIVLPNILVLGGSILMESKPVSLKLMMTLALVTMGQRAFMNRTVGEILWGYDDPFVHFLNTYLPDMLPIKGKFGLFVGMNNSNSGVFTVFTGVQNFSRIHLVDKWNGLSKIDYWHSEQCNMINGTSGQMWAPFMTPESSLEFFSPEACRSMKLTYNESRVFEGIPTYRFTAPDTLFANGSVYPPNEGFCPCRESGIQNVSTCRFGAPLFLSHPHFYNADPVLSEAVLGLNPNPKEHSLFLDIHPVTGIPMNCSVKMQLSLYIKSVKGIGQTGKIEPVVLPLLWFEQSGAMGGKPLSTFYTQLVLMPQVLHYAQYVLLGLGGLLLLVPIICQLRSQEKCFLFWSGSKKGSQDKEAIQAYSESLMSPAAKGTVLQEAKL
CAL PDZ FP-1 = inhibitors of human CAL PDZ peptide binding | AID 504414 | inhibition, % at 20 µM | purified CAL PDZ, TMR-peptide fluorescence polarization, 1 h | Q9HD26 | actives 0.02% (n = 330,000);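 active = highest replicate inhibition of at least 40%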;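 note: plate controls were DMSO neutral control wells for no effect and unlabeled competitor peptide control wells for full effect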
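Test system: tagged CAL PDZ domain / Buffer or medium: sodium phosphate/NaCl buffer pH 7.4 with TCEP, IgG, Thesit / Reagent: TMR-labelled reporter peptide T*-PRC34 bound in PDZ groove / Compound dosing: single point, 20 µM / Schedule: 1 h incubation at room temperature before polarization reading / Technique: fluorescence polarization (mP) / Benchmarks: unlabelled peptide, DMSO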
CAL PDZ FP-2 = inhibitors of human CAL PDZ peptide binding; actives 0.92% (n = 300,000); purified CAL PDZ, TMR-peptide fluorescence polarization, 1 h; Q9HD26; AID 602252; inhibition, % at 24.9 µM;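 active = mean inhibition of at least 30% with at least half of replicates also reaching 30%; inconclusive = no clear call, values can overlap the other calls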;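 note: 0% = DMSO neutral control and 100% = excess unlabeled competitor peptide PRC23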
MITF act = activators of MITF-driven TRPM1 promoter activity in SK-MEL-5 cells | SK-MEL-5 TRPM1-promoter luciferase, 24 h; % of positive control, neutral wells = 0 | activation, % at 12.5 µM | actives 0.75% (n = 300,000) | AID 588334;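 active = mean activation of at least 80% with every replicate also reaching 80%; inconclusive = mean reaches 80% but some replicate falls short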;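 note: 0% = neutral control wells and 100% = parthenolide positive control wells; values of inactives mirror those of a sister screen read the other way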
Wnt bcat act = Wnt/beta-catenin pathway activation. Wnt/beta-catenin reporter cell assay, activator, plate reader. AID 743398. activation, % at 9.35 µM. actives 1.2% (n = 300,000); in the data active = activation above about 30%, passing the limit was not always enough; inconclusive = no clear call, values can overlap the other calls;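 note: 0% = neutral control wells and 100% = positive control wells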
Tat transport = inhibitors of E. coli Tat protein transport. E. coli MC4100 TorA-mCherry Tat export, fluorescence. inhibition, % at 10 µM. actives 0.036% (n = 340,000);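 active = mean replicate inhibition at least 50% and at least half of replicates individually reaching 50%; inconclusive = only one of the two criteria met; inactive = neither criterion met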;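 note: exported cargo escapes ClpAP degradation while cytoplasmic cargo is degraded and loses fluorescence; 0% = median of neutral control wells and 100% = median of NaSCN control wells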
An asterisk follows results filed as active; ? = inconclusive; nt = not tested or not shown.

Below each SMILES: CAL PDZ FP-1	CAL PDZ FP-2	MITF act	Tat transport	SR-BI uptake up	Wnt bcat act	SR-BI DiI inh
> CCOC(=O)N1CCN(C(=O)C2CCN(S(=O)(=O)N3CCC4(CC3)OCCO4)CC2)CC1
    -1.4	-1	12	-6	-5	-1	5
> Cc1ccc(-c2cc(C(=O)N3N=C(C(F)F)CC3(O)C(F)F)c3ccccc3n2)cc1C (stereo not drawn)
    0.2	nt	24	16	-56	nt	56
> Cc1cc(=O)[nH]c(/N=C(\N)Nc2ccc(Oc3ccccc3)cc2)n1
    -1.3	-6	2	9	16	-1	-16
> CC1C(=O)N2CCCc3cc(S(=O)(=O)NCc4ccccc4Cl)cc1c32 (stereo not drawn)
    -2.9	-4	11	5	-8	-3	8
> CCOc1ccc(Cl)cc1/C=N/O
    -2.3	2	3	-6	10	-1	-10
> COc1ccc(Cl)cc1NC(=O)c1cc(S(=O)(=O)N2CCCC2)cn1C
    -1.2	-3	-18	4	-69	-1	69
> Cc1ccc(C)c(S(=O)(=O)NC(C)CCc2ccccc2)c1 (stereo not drawn)
    -2.1	2	-5	20	nt	-2	nt
> NCCOc1ccc(C2CCCCC2)cc1
    -2.6	-1	27	8	34	3	-34
> Cc1ccc2c(c1)c(Sc1ccccc1)c(CC(=O)O)n2C
    -0.2	-4	2	2	40	-1	-40
> CCCC1CC(C(=O)NC(C(C)Cl)C2OC(SC)C(O)C(O)C2O)N(C)C1 (stereo not drawn)
    -0.5	-3	12	15	8	-2	-8
> CC(=O)c1sc(NC(=O)C2CCN(C(=O)c3ccc(F)cc3)CC2)nc1-c1ccccc1
    -3.9	-2	-2	9	-3	1	3
> CC(/C=C/c1ccc2c(c1)OCO2)=N/NC(=O)COc1ccc(C)cc1
    0.2	0	-7	-3	28	nt	-28
> CC1C(c2ccccc2)N(C)C(c2ccccc2)C(C)C1(O)C#Cc1ccccc1 (stereo not drawn)
    -1.2	1	-5	-2	3	-12	-3
> CCOc1ccc(S(=O)(=O)Nc2ccc(C(=O)N3CCC3)cc2)cc1
    -2.6	-1	-7	1	37	1	-37
> Cc1ccc(S(=O)(=O)CCC(=O)Nc2cccc(S(=O)(=O)N3CCCCCC3)c2)cc1
    -1.4	32*	-13	-3	20	-3	-20
> COc1ccc(C(=O)OCC(=O)NC(C)(C)C)cc1[N+](=O)[O-]
    -0.3	-3	1	-8	14	3	-14
> O=C(NC1CCCCC1)N1CCN(c2ccccc2Cl)CC1
    -2.1	1	16	3	-8	6	8
> Cc1ccccc1NC(=O)CCC(=O)N/N=C/c1cccnc1
    0.7	0	3	-3	4	-1	-4
> O=C(O)C(Cc1cc(Cl)ccc1Cl)Sc1nc2ccccc2[nH]1 (stereo not drawn)
    -0.8	18	-7	11	12	0	-12
> Cn1c2nc(=O)[nH]c(=O)c-2cc2ccccc21
    -0.5	0	2	-5	-7	-5	7
> FC(F)(F)c1cc(-c2ccccc2)nc(N2CCOCC2)n1
    -1.4	-2	8	-3	-35	nt	35
> CC(C)OCCCn1c(=S)[nH]c2ccc(N3CCOCC3)cc2c1=O
    -0.7	nt	-1	-10	9	nt	-9
> O=C(CSc1n[nH]c(-c2ccccc2O)n1)N1CCOCC1
    -3.2	0	12	-4	30	0	-30
> O=C(NCc1ccncc1)C(=O)NCC1OCCN1S(=O)(=O)c1ccc(F)cc1 (stereo not drawn)
    -1.2	19	-8	2	6	-1	-6
> CC(/C=N/NC(=O)c1n[nH]c2c1CCC2)=C\c1ccccc1
    -1.4	1	-2	?	-9	nt	9
> Cc1ccc(-c2csc3ncn(CC(=O)OC(C)C)c(=O)c23)cc1
    -6.3	-3	1	0	-31	-5	31
> CC(C)Sc1nc(O)c(Cc2ccccc2)c(=O)[nH]1
    2.2	-1	6	7	14	-2	-14
> CC1(C)[C@H](C(=O)O)N2C(=O)C[C@H]2S1(=O)=O
    1.4	1	nt	-4	2	-2	-2
> Cc1ccc(C)c(N2N=C(C(=O)NCCN3C(=O)S/C(=C\c4cccnc4)C3=O)CCC2=O)c1
    -1.3	-5	-9	2	28	-1	-28
> COc1ccccc1CN1C[C@@H]2C[C@@H](c3ccc(C)c(C)c3)N3CCC[C@@]23C1=O
    -5.3	-3	6	-3	-19	-4	19
> COc1ccc(NC(=O)CN(C)C(=O)c2ccc(S(=O)(=O)Nc3ccccc3F)cc2)cc1
    -1.4	-5	5	5	-1	2	1
> O=C(O)COc1ccc(/C=C/c2nc3ccc([N+](=O)[O-])cc3s2)cc1
    -1.5	-2	9	9	nt	4	nt
> O=C(CSc1nc(-c2cccs2)cc(C(F)(F)F)n1)NCCCn1ccnc1
    -2.5	-4	-8	-4	-25	-4	25
> Cn1c(SCC(=O)Nc2ccc(C(=O)O)cc2)nc2scc(-c3ccccc3Cl)c2c1=O
    -3.1	6	1	7	12	-3	-12
> CCN=C1S/C(=C\c2ccc(N3CCOCC3)cc2C)C(=O)N1CC
    -1.8	0	-2	0	-43	-1	43
> CN(C)C(CNc1nnnn1-c1ccccc1)c1ccco1 (stereo not drawn)
    -0.9	-3	nt	1	3	-4	-3
> COc1ccc(OC)c(S(=O)(=O)NC(C)CCc2ccccc2)c1 (stereo not drawn)
    -20	3	-2	1	nt	0	nt
> CC(=O)NCCOc1nc(N2CCCCC2)nc(N2CCCCC2)n1
    -1.0	-8	-3	3	-9	-1	9
> C=CCOc1ccc(C2NC(=S)NC(C)=C2C(=O)c2ccccc2)cc1OC (stereo not drawn)
    -1.3	nt	-4	-12	-23	-12	23
> Cc1cc(C)nc(NS(=O)(=O)c2ccc(N3C(=O)C4C5C=CC(C5)C4C3=O)cc2)n1 (stereo not drawn)
    -2.4	-1	-3	-4	-9	nt	9
> CCC1CCCCN1C(=O)Cn1nc([N+](=O)[O-])c(Cl)c1C (stereo not drawn)
    0.0	nt	12	-4	19	-2	-19
> COCC(C)n1c(C)cc(C(=O)CSc2ncccn2)c1C (stereo not drawn)
    0.0	-3	12	3	4	2	-4
> Cc1cc(C(=O)COC(=O)c2ccc(O)cc2)c(C)n1Cc1ccco1
    -1.6	-2	?	1	-62	?	62
> COCCNC(=O)[C@H]1N2C(=O)c3ccccc3C2SC1(C)C (stereo partly drawn)
    -0.9	-9	2	-11	3	-2	-3
> O=C1C2C3C=CC(CC3)C2C(=O)N1c1cccc(C(F)(F)F)c1 (stereo not drawn)
    -1.1	-3	nt	-3	9	-1	-9
> Cn1nc(C(=O)NNC(=O)c2ccc(Cl)cc2)ccc1=O
    -2.9	7	17	-8	2	-2	-2
> COc1cc(CN2CCc3ccccc3C2)ccc1O
    -1.1	5	-23	-2	nt	-18	nt
> Cc1cccc(N2CC(C(=O)NCc3ccco3)CC2=O)c1C (stereo not drawn)
    -0.5	-3	4	-4	7	-4	-7
> Cc1noc(C(=O)Nc2cccc(O)c2)c1Cl
    -1.2	-10	27	-1	10	15	-10
> O=C(Cn1cncn1)NCc1ccccc1Br
    -1.1	0	-4	2	-10	nt	10
> CC(C(=O)O)c1cccc(C(=O)c2ccccc2)c1 (stereo not drawn)
    -0.2	32*	9	-1	0	-1	0
> COc1cc(OC)c(OC)cc1CN(C)C(c1ccccc1)c1nnnn1-c1ccccc1C (stereo not drawn)
    -0.7	-1	2	-9	21	nt	-21
> O=C(Nc1ccncc1)c1ccc(-c2ccccc2)cc1
    -3.0	nt	42	-1	-39	4	39
> O=C1N(c2ccc3c(c2)OCCO3)C(c2ccccc2)C1(F)F (stereo not drawn)
    -0.1	6	-4	-6	0	-3	0
> COC(=O)c1ccc(CNC(=O)CSc2nc3sc(C)c(C)c3c(=O)n2C)o1
    -2.7	-2	-8	-6	-4	5	4
> COC(=O)c1[nH]c2ccc(C)cc2c1NC(=O)CN1CCN(Cc2ccccc2)CC1
    -1.6	-2	-8	-4	5	nt	-5
> CC(NC(=O)COC(=O)c1ccccc1SCC(=O)N1CCCC1)c1ccccc1 (stereo not drawn)
    -3.0	-2	12	-8	26	0	-26
> NC(=O)CC(NC(=O)Cc1ccc(Br)cc1)c1ccc(NCCc2ccc(Cl)cc2)c([N+](=O)[O-])c1 (stereo not drawn)
    0.6	1	-9	1	20	-6	-20
> O=C(Cn1cccc1)NCc1cccs1
    nt	-2	-2	5	4	-2	-4
> CCCCCCCC[n+]1c(C)n(-c2ccccc2)c2ccc(NC(C)=O)cc21
    0.0	1	-44	2	2	-6	-2

(more compounds)
Below each SMILES: CAL PDZ FP-1	CAL PDZ FP-2	MITF act	Tat transport	SR-BI uptake up	Wnt bcat act	SR-BI DiI inh
> Cc1c(C2C(C#N)=C(N)N(c3cccc([N+](=O)[O-])c3)C3=C2C(=O)CCC3)cnn1C (stereo not drawn)
    nt	nt	nt	nt	nt	-2	nt
> CC(C)CC(=O)NC1(C(F)(F)F)C(=O)N(CC(C)C)C2=C1C(=O)CC(C)(C)C2 (stereo not drawn)
    -0.3	-8	1	2	8	nt	-8
> Cc1cccc(NC(=O)c2cc(-c3ccc(C)c(C)c3O)n[nH]2)c1
    0.4	7	51	0	-22	16	22
> O=C(O)Cn1nc(C(F)(F)F)c2c1CCCCC2
    -0.2	-3	nt	-2	4	-5	-4
> COc1ccc(OCC(=O)NNC(=O)c2ccccn2)cc1
    -0.4	nt	nt	1	2	-10	-2
> CCN(C(=O)CSc1nnc(Cc2cccc3ccccc23)n1N)C1CCS(=O)(=O)C1 (stereo not drawn)
    -0.1	0	-4	-12	9	nt	-9
> CCN(CC)S(=O)(=O)c1cccc(C(=O)Nc2ccc(Cl)cn2)c1
    -1.3	-1	nt	15	-8	4	8
> CC(=O)Nc1ccc(S(=O)(=O)NCCN2CCOCC2)cc1
    nt	-1	-8	-1	10	-1	-10
> O=C1OC(/C=C/c2ccccc2)=NC/1=C/C=C/c1ccccc1
    -1.5	1	6	-7	-15	0	15
> O=C(CCCn1c(=S)[nH]c2cc3c(cc2c1=O)OCO3)N1CCN(c2ccc(Cl)cc2)CC1
    23	-4	nt	-2	-19	-6	19
> CCOc1cc(C2C(C(=O)OC(C)C)=C(C)N=C3SCCC(=O)N32)ccc1OC(C)=O (stereo not drawn)
    -2.6	-3	nt	-1	-18	-8	18
> O=S(=O)(c1ccc2nc(SCc3cccc(Cl)c3)[nH]c2c1)N1CCOCC1
    -1.5	-3	-9	-1	-1	nt	1
> CCCCn1c(N)c(N(C)C(=O)c2cc3c(F)cccc3s2)c(=O)[nH]c1=O
    -0.2	nt	-9	0	19	2	-19
> CCN1CCCC1CNC(=O)c1ccc2c(c1)NC(=O)/C(=C\c1ccc(OC)c(OC)c1)S2 (stereo not drawn)
    -1.9	0	-88	-4	-36	-4	36
> O=C(O)COc1ccc(/C=N/Nc2nc(Nc3ccccc3)nc(N3CCCCC3)n2)cc1
    -1.4	5	-6	-4	-5	0	5
> Cn1ncc(Br)c1C(=O)O
    -1.6	-1	2	6	5	-2	-5
> COc1ccc(Cl)cc1NC(=O)C1CCCN(c2cc(C)nc3ncnn23)C1 (stereo not drawn)
    -1.9	0	11	6	-29	6	29
> Fc1ccc(N2CCN(Cc3ccccn3)CC2)cc1
    -3.1	-2	-7	2	15	40*	-15

Complete entries as entered above. Values in the order: CAL PDZ FP-1	CAL PDZ FP-2	MITF act	Tat transport	SR-BI uptake up	Wnt bcat act	SR-BI DiI inh
CCC1CCCCN1C(=O)Cn1nc([N+](=O)[O-])c(Cl)c1C (stereo not drawn) across the screens: 0.0	nt	12	-4	19	-2	-19
CCN=C1S/C(=C\c2ccc(N3CCOCC3)cc2C)C(=O)N1CC across the screens: -1.8	0	-2	0	-43	-1	43

Compound activity from PubChem.

Some of the compounds tested; count on the stated rates, not on these rows.
